AF4-AF9 inh: inhibitors of AF4 peptide binding to AF9, primary screen, biochemical, AlphaScreen, biotin-AF4 peptide, FLAG-AF9, single point; inhibition, % at 10 µM; 0.47% of 350,000 active;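 active = every replicate reaching a set inhibition limit, whatever the replicate mean, cut at about 25% in these data; inconclusive = mean inhibition reaches that limit but some replicates miss it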;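 note: 0% = plate neutral control median and 100% = total signal loss; the record names both 10 and 1 µM as test concentration; the first replicate is given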
Target sequence (P42568 whole entry, looked up): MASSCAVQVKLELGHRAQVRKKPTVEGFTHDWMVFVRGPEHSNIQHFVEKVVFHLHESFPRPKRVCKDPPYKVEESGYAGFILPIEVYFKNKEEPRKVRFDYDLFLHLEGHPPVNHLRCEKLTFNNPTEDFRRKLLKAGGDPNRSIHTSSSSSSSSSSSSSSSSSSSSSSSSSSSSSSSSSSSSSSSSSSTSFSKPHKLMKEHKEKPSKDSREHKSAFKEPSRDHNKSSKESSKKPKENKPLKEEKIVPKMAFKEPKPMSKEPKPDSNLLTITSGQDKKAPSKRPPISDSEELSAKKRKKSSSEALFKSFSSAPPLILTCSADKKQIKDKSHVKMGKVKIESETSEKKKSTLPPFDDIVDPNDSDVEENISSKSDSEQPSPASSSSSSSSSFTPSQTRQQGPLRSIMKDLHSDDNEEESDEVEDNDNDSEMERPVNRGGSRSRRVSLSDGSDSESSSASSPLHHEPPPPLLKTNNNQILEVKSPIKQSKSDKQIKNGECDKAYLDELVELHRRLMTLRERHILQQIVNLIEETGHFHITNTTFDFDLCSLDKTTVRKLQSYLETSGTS
Calb FLC: C. albicans growth inhibition with fluconazole, primary screen, CaCi-2 strain, Alamar Blue fluorescence; growth inhibition, % (concentration not given with the values); 0.57% of 300,000 active; C. albicans CaCi-2 (fluconazole-resistant clinical isolate) + fluconazole, 48 h;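 active = most replicates above 75%; inconclusive = exactly half above 75%; inactive = most below 75%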;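 note: all wells also contain fluconazole at 8 µg/ml as a sub-toxic cotreatment; 0% = median of DMSO wells and 100% = median of geldanamycin control wells; wells of about 8 µL received 7.5 nL stock; the first replicate is given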
T cruzi repl: inhibitors of intracellular T. cruzi growth, primary screen, luminescence, NIH3T3 host cells | T. cruzi beta-gal in NIH3T3, 90 h | inhibition, % (test concentration not listed) | 1.4% of 300,000 active | AID 1885, 2009;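 active = mean inhibition across valid replicates above about 55%, limit read from the data; inconclusive = mean below that limit but half or more replicates reach it; inactive = mean below it, under half of replicates reach it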;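 note: signal also drops with host cell toxicity which is not excluded here; 0% = plate median of DMSO wells and 100% = zero luminescence signal; higher percent means less beta-gal luminescence so fewer parasites; stock transfer was 50 nL into about 50 µL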
ALR inh: inhibitors of human ALR sulfhydryl oxidase, primary screen, biochemical, H2O2 detection, HRP-luminol luminescence, single point; FAD-linked sulfhydryl oxidase ALR (Homo sapiens), P55789; purified ALR, DTT oxidation; inhibition, % (test concentration not listed); 3.8% of 290,000 active; AID 485317, 2010;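 active = mean and each replicate at 75% or more; inconclusive = only one of the two met; inactive = neither met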;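 note: stock transfer was 7.5 nL into about 7.5 µL; 0% = neutral wells and 100% = wells with inactivated enzyme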
Target sequence (P55789 whole entry, looked up): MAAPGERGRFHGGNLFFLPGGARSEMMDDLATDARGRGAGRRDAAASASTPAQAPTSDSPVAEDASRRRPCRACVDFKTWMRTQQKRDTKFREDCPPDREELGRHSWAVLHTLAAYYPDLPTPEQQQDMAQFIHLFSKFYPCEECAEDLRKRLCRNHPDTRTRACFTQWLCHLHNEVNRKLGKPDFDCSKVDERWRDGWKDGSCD
Beta cell apopt: inhibitors of cytokine-induced beta cell apoptosis, primary screen, luminescence. INS-1E cytokine-induced death, ATP luminescence, 48 h; percent of positive-control rescue, neutral wells zero. protection from apoptosis, % (test concentration not listed). 0.8% of 300,000 active;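 active = all replicates at 75% or more, or half of them and the mean; inconclusive = half reach 75% but not the mean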;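 note: 0% = cytokine-treated negative control wells and 100% = positive control rescue; higher means more ATP so stronger rescue from cytokine killing; wells of about 40 µL received 100 nL stock; the first replicate is given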
Ecoli rRNA inh: reduced GFP signal of wild-type E. coli, primary screen, bacterial rRNA inhibitor project, GFP/RFP fluorescence, OD600, single point | E. coli WT GFP vs humanized-ribosome RFP mutants, 24 h; hits give low values; DMSO median 0, no signal -100 | GFP signal change (wild-type ribosome), % (test concentration not listed) | 1.6% of 350,000 active | AID 720706, 2013;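 active = significant combined selectivity score with lowered wild-type GFP, culture density cut under 30%, mutant RFP and density less affected; inactive = any of these conditions unmet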; note: one replicate is shown; some compounds called inactive have numbers as strong as hits
FGF22 binding: binders of human FGF22 protein, primary screen, FGF22 synaptogenesis inhibitor project, biophysical, thermal shift, single point; recombinant FGF22 thermal shift, SYPRO orange fluorescence; percent of sucrose octasulfate shift, DMSO zero; calls only at 9.99 µM; 1.5% of 340,000 active; AID 651658, 2012;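 active = melting point raised past a set limit in the mean and every replicate; inconclusive = no clear call; three in four hits are not shown here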
Target sequence (Q9HCT0 whole entry, looked up): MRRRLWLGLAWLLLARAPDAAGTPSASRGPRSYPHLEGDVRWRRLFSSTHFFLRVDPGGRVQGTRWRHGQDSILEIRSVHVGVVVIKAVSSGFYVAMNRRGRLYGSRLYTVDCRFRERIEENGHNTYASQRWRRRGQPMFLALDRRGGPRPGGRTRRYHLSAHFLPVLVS
RanGTP-Impb inh: inhibitors of RanGTP-importin-beta interaction, primary screen, biochemical, FRET, CFP-Ran, YFP-importin-beta, homogeneous; Ran GTPase (GTP-bound) - importin-beta complex; cell-free CFP-Ran/YFP-importin-beta FRET ratio; inhibition, % (concentration not given with the values); 1.1% of 300,000 active;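 active = most replicates above 15%; inconclusive = exactly half above 15%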;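 note: 0% = DMSO wells and 100% = Ran loaded with GDP instead of GTP; wells of about 40 µL received 100 nL stock; the first replicate is given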
Ecoli rRNA inh OD600: also measured in Ecoli rRNA inh; calls as there; OD600 change, %; measured here: OD600 growth;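 optical density of the mix in the first replicate; 0 = DMSO median and -100 = no signal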
Ecoli rRNA inh RFP: recorded beside Ecoli rRNA inh, whose call it bears; RFP signal change, %; measured here: RFP humanized mutant strains;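 first replicate; 0 = DMSO median and -100 = no signal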
* hit, by the source's call; i = inactive; u = inconclusive; x = not tested or not shown; & = joins results of further samples. A portion of the library, so the mix of outcomes need not match the whole.

SMILES	AF4-AF9 inh	Calb FLC	T cruzi repl	ALR inh	Beta cell apopt	Ecoli rRNA inh	Ecoli rRNA inh OD600	Ecoli rRNA inh RFP	FGF22 binding	RanGTP-Impb inh
O=C(CSCCO)Nc1ccc([N+](=O)[O-])cc1	1.1	-5	-11	-20	-6	5	6	4.1	i	-2.6
CN(CCC#N)CC(=O)Nc1ccc(S(N)(=O)=O)cc1	0.9	28	-10	-4	x	12	7	-1.6	x	0.5
CC1Oc2ccccc2N(CC(=O)N(Cc2ccccc2)Cc2ccccn2)C1=O (stereo not drawn)	x	-10	4	1	1	x	x	x	x	0.6
Cc1ccc(S(=O)(=O)N(Cc2ccc(Cl)cc2)c2ccccc2C(=O)NCc2cccnc2)cc1	8.2	-2	41	x	4	x	x	x	i	-2.7
Cc1ccc(S/C(=N\S(=O)(=O)c2ccc(Cl)cc2)c2ccccc2)cc1	x	4	-9	-3	-41	x	x	x	x	3.7
CSc1nc2ccc(S(=O)(=O)N(C)C)cc2s1	x	-5	2	66	-1	x	x	x	x	u
Cc1ccc2[nH]c(=O)c3cc(C(=O)NCC4CCCO4)sc3c2c1 (stereo not drawn)	-1.0	-6	-3	-4	5	-8	-11	-2.2	i	u
Nc1ccccc1-c1nnc2n1CCCCC2	3.6	-14	5	3	1	8	10	-2.1	i	-2.1
Cc1ccnc(NC(=O)CNC(=O)c2ccc3c(c2)OCO3)c1	-0.6	-3	-3	-1	-7	0	-3	0.1	i	2.1
CCNS(=O)(=O)c1ccc(CCC(=O)N2CCOCC2)cc1	0.4	13	-13	x	1	21	6	7.0	i	-3.0
O=C(Nc1cc(F)ccc1F)C1CCCO1 (stereo not drawn)	-8.2	-3	-8	-4	2	17	20	-12	i	3.7
CCN(c1ccccc1)S(=O)(=O)c1ccc(C(=O)Oc2ccc(C(C)=O)cc2)cc1	x	-37	3	11	4	x	x	x	x	-2.8
Cc1ccccc1-c1nc(P(=O)(c2ccccc2)c2ccccc2)c(N2CCOCC2)o1	11	20	22	x	x	-30	-30	8.6	i	-0.3
COC(=O)CCCC(=O)N1CCCC(C(=O)c2ccc(OC)cc2C)C1 (stereo not drawn)	-3.1	-7	0	-6	-1	7	-20	-2.5	i	2.4
CCc1cc(C(=O)NNC(=O)CCN2CCN(c3ccccc3)CC2)sc1C	0.9	8	1	2	4	-2	-5	-2.0	i	-7.0
O=C(O)CC1Oc2ccc(Cl)cc2NC1=O (stereo not drawn)	0.2	-3	2	4	0	11	7	0.5	x	-1.4
Cc1cccc(-c2nnc(-c3cccc(NC(=O)Cc4cccs4)c3)o2)c1	x	-7	19	x	10	x	x	x	x	-2.0
CCc1ccccc1NC(=O)COc1cccc2ccc(C)nc12	x	-16	10	-6	-10	x	x	x	x	2.2
CC(=O)NC(CC(=O)N(C)Cc1cccc(Cl)c1Cl)c1ccccc1 (stereo not drawn)	0.8	-16	x	x	-2	-9	-12	-1.4	i	x
CCOc1ccccc1C(=O)Nc1nnc(COC)s1	x	1	15	0	0	x	x	x	x	0.6
Cc1ccc(Nc2cc(=O)[nH]c(=O)[nH]2)cc1Cl	-0.9	27	-13	2	-11	11	9	4.6	x	1.9
O=C(Nc1cccc(S(=O)(=O)N2CCCCCC2)c1)C1CC(=O)N(c2ccc3c(c2)OCCO3)C1 (stereo not drawn)	5.7	-4	4	-1	3	-8	-10	2.9	i	-1.5
CCOC(=O)N1CCN(C(=O)C(C)n2nc(C)n3c(cc4sccc43)c2=O)CC1 (stereo not drawn)	x	19	1	-1	-3	x	x	x	x	1.1
CCOc1cc(C(=O)NCCOC)ccc1OC	x	20	-5	-4	1	x	x	x	x	0.4
CCCn1c(SCC(=O)Nc2ccc3c(c2)CCC3)n[nH]c1=O	-24	-20	-7	19	0	9	6	-4.3	i	0.6
Additional records:
SMILES	AF4-AF9 inh	Calb FLC	T cruzi repl	ALR inh	Beta cell apopt	Ecoli rRNA inh	Ecoli rRNA inh OD600	Ecoli rRNA inh RFP	FGF22 binding	RanGTP-Impb inh
CCOC(=O)C(NC(C)=O)(Nc1ccc(F)cc1)C(F)(F)F (stereo not drawn)	x	-10	0	-4	1	x	x	x	x	-2.5
CC1CCCCN1CCNC(=O)C1CCN(S(=O)(=O)c2cccc3nsnc23)CC1 (stereo not drawn)	-2.0	10	6	-10	1	1	8	1.5	i	-1.4
Cc1cc(OC(=O)c2ccccc2[N+](=O)[O-])c([N+](=O)[O-])c(=O)[nH]1	-13	0	-23	-2	-4	12	14	-1.3	i	5.7
CCN1CNC(=S)N(c2cc(C)ccc2C)C1	x	-20	-11	-5	x	x	x	x	x	-0.6
CCOC(=O)c1c(NC(=O)CSc2nc3c(c(=O)n(C)c(=O)n3C)n2CC)sc(C)c1C	x	12	-5	9	7	x	x	x	x	1.3
NC(=O)C1CCN(C(=O)N2c3ccccc3Sc3ccccc32)CC1	u	-14	-8	80*	-6	-23	-19	-0.4	i	4.7
CCCC(C)c1nnc(NC(=O)C2CC(=O)N(c3ccc(OCC)cc3)C2)s1 (stereo not drawn)	-3.1	6	5	5	4	3	10	1.5	i	18*
Cc1cc(OCC(=O)N2CCN(c3ccccn3)CC2)cc(C)c1Br	-2.4	34	1	-4	-4	-36	-62	-6.0	i	u
CCc1ccccc1NC(=O)C1CC(c2ccc(F)cc2)=NO1 (stereo not drawn)	x	-5	-1	x	-1	x	x	x	x	0.0
COc1ccc(S(=O)(=O)N(C)C[C@H]2Oc3ccc(NC(=O)Nc4ccccc4)cc3C(=O)N([C@H](C)CO)C[C@@H]2C)cc1	-0.1&-1.9	x	x	-1	-6	-4&7	-4&1	3.6&1.6	i	x
CN(C)S(=O)(=O)c1cccc(NC(=S)Nc2ccc(Cl)cc2Cl)c1	x	-9	0	99*	2	x	x	x	x	3.6
CCC(C)(C)n1nnnc1CN1CCc2ccccc21	x	-4	6	98*	0	x	x	x	x	-1.2
CC(=O)c1cccc(NC(=O)c2cc(=O)[nH]c3ccc(S(=O)(=O)N4CCOCC4)cc23)c1	-57	x	x	0	-1	13	8	4.5	i	x
CCn1c(Oc2cccc(Br)c2)nc2c1c(=O)n(C)c(=O)n2C	-3.9	5	-8	-5	2	-21	-26	-2.0	i	1.5
O=C(COC(=O)COc1ccc2c(c1)CCC2)Nc1ccccc1C(F)(F)F	-2.5	x	x	-4	3	9	16	0.6	i	x
COc1ccccc1/C=C/C(=O)NC(=S)Nc1ccc(S(=O)(=O)N(C)c2ccccc2)cc1	x	0	9	1	1	x	x	x	x	3.4
COc1ccc(CNC(=O)[C@@H](NC(=O)C2CCN(S(=O)(=O)c3ccc(C)cc3)CC2)C(C)C)cc1OC	-2.2	5	-12	-36	-4	14	17	-0.6	i	3.0
CCOc1cccc(CNc2nnnn2C)c1	-2.5	0	-10	-4	-5	17	10	3.7	i	-2.1
CCc1ccc(C2=NN(S(C)(=O)=O)C(c3cccs3)C2)cc1 (stereo not drawn)	x	-1	u	-2	3	x	x	x	x	0.9
COc1ccc(O)c(/C=N/Nc2nc3ccccc3[nH]2)c1	17	4	-16	99*	x	-40	-39	-16	x	-2.5
Nc1nc(CN2CCOCC2)cs1	x	4	-1	-25	x	x	x	x	x	5.1
Cc1cc2nc3c(nc2cc1C)C1(C(=O)O)CCC3(C)C1(C)C (stereo not drawn)	x	-13	0	-11	-9	x	x	x	x	1.9
NC(=O)C1CCN(CC(=O)Nc2ccccc2Sc2ccc(Cl)cc2)CC1	-11	8	5	87*	-5	-47	-68	-21	x	-2.6
COc1ccc(NC(=O)c2nc[nH]c2C(=O)N2CCN(C(=O)OC(C)(C)C)CC2)cc1	-6.7	0	0	-1	-10	5	6	7.3	i	25*
NC(=O)NC(=O)COC(=O)c1ccccc1OCc1ccc(F)cc1	-5.2	1	11	x	-5	3	2	-5.7	i	4.9

The list goes on; it opens with the 2 that closed the last part.
SMILES	AF4-AF9 inh	Calb FLC	T cruzi repl	ALR inh	Beta cell apopt	Ecoli rRNA inh	Ecoli rRNA inh OD600	Ecoli rRNA inh RFP	FGF22 binding	RanGTP-Impb inh
COc1ccc(NC(=O)c2nc[nH]c2C(=O)N2CCN(C(=O)OC(C)(C)C)CC2)cc1	-6.7	0	0	-1	-10	5	6	7.3	i	25*
NC(=O)NC(=O)COC(=O)c1ccccc1OCc1ccc(F)cc1	-5.2	1	11	x	-5	3	2	-5.7	i	4.9
COC(=O)C1=C(C)N(Cc2ccccc2)C(=NCC(C)C)N[C@H]1c1cccc(F)c1	0.7	x	x	4	-14	-36	-58	-9.4	i	x
O=C(NC1CCCC1)C(c1ccccc1)N(C(=O)c1ccno1)c1cccnc1 (stereo not drawn)	x	9	-6	-4	-3	x	x	x	x	0.7
CCN(CC)CCOC(=O)c1ccc(NC(=O)COc2cc(=O)n(CC)c3ccccc23)cc1	x	-19	-3	0	-4	-8	-13	1.5	x	6.0
CN(c1ccccc1)S(=O)(=O)c1cccc(C(=O)NCCc2ccc(O)c(O)c2)c1	11	u	2	93*	-17	x	x	x	i	-2.5
CC(CCc1ccccc1)NCC(O)c1ccc(O)c(C(N)=O)c1 (stereo not drawn)	-1.9&0.3	x	10	-4	-3	x	x	x	i	0.1
CCCCSCCCNC(=S)Nc1ccccc1C	-11	-19	-3	77*	16	-17	-15	-2.4	x	1.5
CCCOc1ccc(C(=O)NCCc2ccccc2)cc1	-1.6	2	10	-4	10	x	x	x	i	0.5
CCCCCSc1nncc(=O)[nH]1	x	11	-12	-2	1	x	x	x	x	0.1
Cc1ccc(CN2C(=O)N/C(=C/c3ccc4c(c3)n(C)c(=O)n4C)C2=O)cc1	x	5	18	-9	-14	x	x	x	x	2.2
O=C(CN(C(=O)CCC(=O)Nc1ccccn1)C1CCCC1)NCc1ccc(F)cc1	-1.1	1	-3	0	0	1	4	2.0	i	1.5
O=C(NNC(=S)Nc1ccccc1)Nc1ccccc1	-2.3	16	-9	46	-6	6	3	1.2	i	-0.3
Cn1c(=O)c2c(-c3ccc(C(C)(C)C)cc3)n(CC3CCCO3)cc2n(C)c1=O (stereo not drawn)	x	-6	-4	2	x	x	x	x	x	u
CCOC(=O)c1c(NC(=O)CN2C(=O)NC3(CCCCC3C)C2=O)sc(C)c1C (stereo not drawn)	x	-2	22	2	3	x	x	x	x	-0.9
COc1cc2c(cc1OC)CN(CC(=O)NC(=O)NCc1ccccc1)CC2	0.0	0	3	17	3	3	-1	0.2	i	-1.7
Cc1cccc(OCC2CCCN(Cc3nc(C4CC4)no3)C2)c1 (stereo not drawn)	5.4	2	12	-5	1	-5	2	-1.7	i	-5.0
COc1cccc(C2=CC(c3cccc(OC)c3OC)n3nnnc3N2)c1 (stereo not drawn)	x	18	-5	33	-3	x	x	x	x	-4.3
O=C(O)c1ccccc1S(=O)(=O)NCC(O)COC1CCCCC1 (stereo not drawn)	x	-3	-5	1	-7	x	x	x	x	-0.6
